High-throughput results deposited in PubChem BioAssay by SRMLSC.
H5N1 antiviral = antiviral screen in MDCK cells, H5N1 avian flu; inhibition, % at 50 µM; AID 740; cytopathic effect, luminescence, 72 h; active compounds read high; no value below 0 was filed and about half of the inactive calls have no number; reference of the scale not given here; 96,000 tested, 0.07% active; in the data active = inhibition above about 25%
Active calls of the source: *; i = inactive.

SMILES	H5N1 antiviral
Cc1ccc(C)c(C(C)NC(=O)C2C3CCC(O3)C2C(=O)O)c1 (configuration not stated)	i
Cc1onc(-c2ccccc2)c1C(=O)N1CCN(C/C=C/c2ccccc2)CC1	i
O=S(=O)(c1ccc(OCC(O)CN2CCc3ccccc3C2)cc1)N1CCOCC1 (configuration not stated)	1.0
CCOC(=O)c1oc2ccccc2c1NC(=O)c1cccc(OC)c1OC	0.0
Cc1ccc(-c2cnc(N)n2C)cc1C	i
Cc1ccc(CC(=O)N2CCN(c3cccc(C(F)(F)F)c3)CC2)cc1	i
COc1ccc2oc(C(F)(F)C(F)F)cc(=O)c2c1	1.2
Cc1cc(NC(=O)COC(=O)C2CCN(S(=O)(=O)c3cccc(Cl)c3Cl)CC2)no1	i
CCOc1ccc(NCC(=O)Nc2ccc(C)cc2C)cc1	i
CCOC(=O)c1cnc2ccccc2c1NCCc1ccc(OC)c(OC)c1	17.3
NC(=O)c1ccc(N2CCCCC2)c(N2C(=O)CCC2=O)c1	0.4
COc1cc(-c2nc3cnccn3c2Nc2ccccc2)ccc1O	3.4
CC1=C(C)/C(=N\OC(=O)/C=C/c2ccccc2)C=CC1=O	0.5
Cc1sc(NC(=O)CSc2nnc(COc3ccccc3)n2C)c(C#N)c1C	i
O=C(NCC1CCCO1)C(c1cccnc1)N(C(=O)Cc1cccs1)c1cccnc1 (configuration not stated)	i
COC(=O)c1ccc(NC(=O)c2ccccc2N(C)S(=O)(=O)c2ccccc2)cc1	i
CCN1C(=O)/C(=C2/SC(C)=C(C)N2CC)SC1=S	2.2
O=C(/C=C/c1ccccc1)NC(=S)Nc1ccc(N2CCOCC2)cc1	i
Cc1ccc(S(=O)(=O)N(CC(=O)NCc2ccco2)Cc2ccccc2F)cc1	0.3
NS(=O)(=O)c1ccc(CCNC(=O)NC2(C(F)(F)F)Oc3ccccc3O2)cc1	0.4

The closing two records of the part above lead into the next:
SMILES	H5N1 antiviral
Cc1ccc(S(=O)(=O)N(CC(=O)NCc2ccco2)Cc2ccccc2F)cc1	0.3
NS(=O)(=O)c1ccc(CCNC(=O)NC2(C(F)(F)F)Oc3ccccc3O2)cc1	0.4
COc1ccc(S(=O)(=O)N(CCCN2CCCC2=O)Cc2cc3c(C)ccc(C)c3[nH]c2=O)cc1	i
CCN(CC(=O)NC(C)C)C(=O)CCNC(=O)c1ccc(Cl)cc1	0.7
FCCCOc1ccc(-c2nccc(-c3ccc(Cl)cc3)n2)cc1	i
Cc1nc2sc(C(c3cccs3)N3CCN(c4cccc(Cl)c4)CC3)c(O)n2n1 (configuration not stated)	i
O=C(Nc1ccccc1O)c1ccc(Cl)cc1	i
CCOC(=O)CSc1nc(C)cc(C)c1C#N	1.0
CC(=O)N1CCN(CC(O)COc2ccc(OCc3ccccc3)cc2)CC1 (configuration not stated)	0.8
COCCCn1c2nc3ccccc3nc2c2c(=O)n(Cc3ccc(Cl)cc3)cnc21	5.0
Cc1c(NC(=O)CSc2nc(-c3ccco3)cc(C(F)(F)F)n2)c(=O)n(-c2ccccc2)n1C	i
O=C(Cn1c(=O)n(CC2CCCO2)c(=O)c2ccccc21)c1ccccc1 (configuration not stated)	i
Cc1ccc(-c2nn(-c3ccccc3)cc2CN(Cc2ccccc2)C(=O)CCC(=O)O)o1	0.5
CCN(CC)S(=O)(=O)c1ccc(NC(=O)C(OC)c2ccccc2)cc1 (configuration not stated)	i
Cc1cccc(NC(=O)c2ccccc2NC(=O)C(C)(C)C)n1	i
CN(C(=O)Nc1ccc(S(=O)(=O)N(C)C)cc1)C1CCCCC1	0.2
O=C(Cc1ccccc1)Nc1ccccc1N1CCOCC1	i
CNc1nc2c3ccccc3n(C(C)=O)c2s1	i
Cc1cc2nnc(SCC(=O)NCc3cccs3)n2c2ccccc12	1.5
N#C/C(=N\Nc1ccc(Cl)cc1)C(=N)N1CCCCC1	0.3
O=C(O)c1ccc2c(c1)CC(c1ccccc1)OC2=O (configuration not stated)	i
CCn1c(SCc2nc(CC(=O)Nc3ccccc3OC)no2)nnc1-c1cccs1	2.1
CCOC(=O)C1=C(c2ccccc2)N(C)C(=O)NC1c1ccc(O)c(OC)c1 (configuration not stated)	2.2
COc1ccccc1C(=O)N1CCN=C1c1ccccc1	i
Cc1nc(SCC(=O)c2c[nH]c3ccccc23)n[nH]1	i
CCCS(=O)(=O)N1CCC(C(=O)NCCCOCC)CC1	i
Cc1ccc2nc(C3CCN(CC(=O)Nc4ccc5c(c4)OCCO5)CC3)[nH]c2c1	i
CCOC(=O)C1=C(C)NC(C)=C(C(=O)OCC)C1c1ccc(O)cc1	i
C=CP(=O)(O)c1ccccc1	i
Cn1nc(C(F)(F)F)c(C#N)c1N1CCN(c2ccccc2)CC1	0.3
COc1cc(C(=S)N2CCC(C(N)=O)CC2)ccc1O	0.1
CCN1CCN(c2ncnc3ccc(Br)cc23)CC1	5.0
O=C(COC(=O)C1CCCN1C(=O)c1cccs1)c1ccccc1 (configuration not stated)	0.7
O=c1c(C=NCc2cccs2)c(O)n(C2CCCCC2)c(=O)n1C1CCCCC1	0.6
CCc1nnc(NC(=O)CSc2nnc(-c3c[nH]c4ccccc34)n2CC)s1	i
O=C(O)Cn1nc(-c2ccc(F)cc2)oc1=O	i
CCOc1ccc(NS(=O)(=O)c2ccc(NC(=O)C3CCCO3)cc2)cc1 (configuration not stated)	0.5
Cc1cccc2cc(CN(Cc3cccnc3)C(=O)c3ccccc3F)c(Cl)nc12	1.6
CCn1c(SCC(=O)Nc2ccc(NC(=O)c3cccs3)cc2)nnc1-c1cccnc1	i
CCCOc1ccc(C2NC(=O)NC2=O)cc1 (configuration not stated)	i
C=CCn1c(O)c(C(C)=Nc2ccc(NC(C)=O)cc2)c(=O)[nH]c1=O	2.0
COc1ccc(NC(=O)COc2ccc(/C=N/n3c(C)nnc3C)cc2OC)cc1	0.6
CCOc1ccc(CC(=O)N2CCN(c3ccc(N4CCOCC4)nn3)CC2)cc1OCC	0.4
COc1cccc(N2CCN(Cc3nc(N)nc(Nc4ccccc4OC)n3)CC2)c1	0.3
COc1cc2c(cc1NC(=O)CN1C(=O)NC3(CCc4ccccc43)C1=O)oc1ccccc12 (configuration not stated)	i
CCn1cc(/C=N/NC(=O)c2ccc(C#N)cc2F)c2ccccc21	i
CC(=O)Nc1nonc1-c1nc2ccccc2n1Cc1nnc(C)o1	0.4
CCC(=O)Nc1cc2c(cc1C(=O)CC)OCCO2	i
Cc1ccc(-c2nnc(SCC(=O)NNC(=O)COc3cccc(C)c3)n2C)cc1	0.3
O=C(C1CCCCC1)N1CCCC(c2nc3c(nnn3Cc3ccccc3)c(=O)[nH]2)C1 (configuration not stated)	3.3
COCCCNC(=O)Cn1nc(-c2ccc(C)cc2)ccc1=O	i
O=C(CSc1nnc(-c2ccco2)n1Cc1ccccc1)c1ccc(F)cc1	i
The list continues.
SMILES	H5N1 antiviral
O=C(O)c1cccc(-n2cnnn2)c1	i
Cc1cc(C)nc(SCC(=O)Nc2ccccc2[N+](=O)[O-])n1	i
CC1(C)CC2CC(C)(CN2C(=O)COC(=O)c2cc(Cl)cc(Cl)c2N)C1 (configuration not stated)	i
CCOc1nc(SCCOc2ccc(C)cc2)nc(N(C)C)n1	6.6
Cc1nc(SCC(=O)OCc2ccccc2)c2c(=O)n(C)c(=O)n(C)c2n1	1.8
COc1cc2c(cc1OC)-c1c(OC)c(OC)cc3c1C(C2)N(C)CC3 (configuration not stated)	i
OC(CCCCN1CCCCC1)c1ccccc1 (configuration not stated)	0.8
O=C(C1CCCN1S(=O)(=O)c1cccc2cccnc12)N1CCc2ccccc2C1 (configuration not stated)	3.0
CCOc1cc(S(=O)(=O)N(Cc2ccccc2)Cc2ccccc2)c(OCC)cc1-n1cnnn1	0.8
COC(=O)CC1Oc2ccc(C)cc2NC1=O (configuration not stated)	1.4
O=C(O)CSCc1cn2cc(Cl)ccc2n1	0.4
CCOc1ccccc1NC(=O)CSc1nnc(Cn2c(=O)sc3ccccc32)n1C	1.6
CCOC(=O)C1C(=O)NC(SCC(=O)OC)=C(C#N)C1c1ccccc1OCC (configuration not stated)	i
Cc1ccc(C(=O)NNC(=O)C2CCCN(c3ncccn3)C2)cc1 (configuration not stated)	0.5
COc1cccc(N2CCN(S(=O)(=O)c3ccc4nc(-c5ccccc5)[nH]c4c3)CC2)c1	0.6
Cn1c(Cn2nnc3ccccc32)nnc1SCC(=O)N1CCc2ccccc21	0.2
CCOC(=O)c1c(C)[nH]c(C)c1C(=O)CSc1nnc(-c2ccncc2)n1C	0.5
COc1ccc(C(C)=O)cc1COC(=O)c1cccc(N(C)C)c1	0.6
O=C(Cc1ccccc1)OCCN1CCCCC1	i
NC(=O)C1(N2CCCCC2)CCN(S(=O)(=O)c2cc(Cl)ccc2Cl)CC1	1.2

16 entries out of the list, ordered by number of heavy atoms, falling.
SMILES	H5N1 antiviral
CCOc1cc(S(=O)(=O)N(Cc2ccccc2)Cc2ccccc2)c(OCC)cc1-n1cnnn1	0.8
COc1cccc(N2CCN(S(=O)(=O)c3ccc4nc(-c5ccccc5)[nH]c4c3)CC2)c1	0.6
CCOc1ccccc1NC(=O)CSc1nnc(Cn2c(=O)sc3ccccc32)n1C	1.6
O=C(C1CCCN1S(=O)(=O)c1cccc2cccnc12)N1CCc2ccccc2C1 (configuration not stated)	3.0
CCOC(=O)C1C(=O)NC(SCC(=O)OC)=C(C#N)C1c1ccccc1OCC (configuration not stated)	i
O=C(CSc1nnc(-c2ccco2)n1Cc1ccccc1)c1ccc(F)cc1	i
Cc1nc(SCC(=O)OCc2ccccc2)c2c(=O)n(C)c(=O)n(C)c2n1	1.8
NC(=O)C1(N2CCCCC2)CCN(S(=O)(=O)c2cc(Cl)ccc2Cl)CC1	1.2
Cc1ccc(C(=O)NNC(=O)C2CCCN(c3ncccn3)C2)cc1 (configuration not stated)	0.5
COc1ccc(C(C)=O)cc1COC(=O)c1cccc(N(C)C)c1	0.6
COCCCNC(=O)Cn1nc(-c2ccc(C)cc2)ccc1=O	i
Cc1cc(C)nc(SCC(=O)Nc2ccccc2[N+](=O)[O-])n1	i
O=C(Cc1ccccc1)OCCN1CCCCC1	i
COC(=O)CC1Oc2ccc(C)cc2NC1=O (configuration not stated)	1.4
O=C(O)CSCc1cn2cc(Cl)ccc2n1	0.4
O=C(O)c1cccc(-n2cnnn2)c1	i

Other records follow.
SMILES	H5N1 antiviral
Cc1cc(-c2ccccc2)n(-c2ccc(C(=O)NC(C)C)cc2)n1	i
CC1Cc2ccccc2N1C(=O)CN1C(=O)NC(C)(c2ccc3c(c2)OCCO3)C1=O (configuration not stated)	i
O=C(O)CCCC(=O)Nc1nc2n(n1)C(c1ccc(F)cc1)CC(c1ccc(Cl)cc1)N2 (configuration not stated)	i
C=CCOc1ccc(CNn2cn[nH]c2=S)cc1OCC	i
Cc1ccc(C(C(=O)NC2CCCC2)N(C(=O)Cc2cccs2)c2cccc(C)c2C)o1 (configuration not stated)	0.9
CCN(CC)C(=O)CSc1nc2c(sc(=S)n2CC)c(=O)n1-c1ccccc1	i
Cc1nc(CNS(=O)(=O)c2ccc3ccccc3c2)cs1	3.8
Cc1noc(C)c1C(=O)OCC(=O)c1c[nH]c2ccccc12	i
O=C(CN1C(=O)COc2ccccc21)c1ccc(Cl)cc1	0.8
CC1(c2ccccc2)NCCN2C(=O)CSC21 (configuration not stated)	i
CN(C)C(CN1C(=O)C2CC=CCC2C1=O)c1cn(C)c2ccccc12 (configuration not stated)	i
O=C(C1CCN(S(=O)(=O)N2CCOCC2)CC1)N1CCOCC1	0.6
CN1CCCC(OC(=O)CCCCC(=O)OC2CCCN(C)C2)C1 (configuration not stated)	0.8
COc1cc(OC)cc(C(=O)N2CCC(N3CCN(c4ccccc4)CC3)CC2)c1	i
O=C(CSC1=NCCS1)NC1CCCC1	0.9
Cc1ccc(N2C(=O)c3ccccc3C2(O)c2ncc[nH]2)cc1 (configuration not stated)	0.1
CS(=O)(=O)Nc1ccc(C(=O)NCc2ccccn2)cc1	i
Cc1cc(C)nc(N/C(=N\S(=O)(=O)Cc2ccccc2)Nc2cccc(Cl)c2C)n1	i
C/C(CC(=O)Nc1ccccc1-c1ccccc1)=N\NC(=O)COc1ccc(C)cc1Br	i
CCCSc1nnc(CSc2nc3nc(C)cc(C)n3n2)o1	16.3
COCCOC(=O)C1=C(C)NC(=O)NC1c1cccs1 (configuration not stated)	0.2
CC1CCCCC1NC(=O)Cn1[nH]c(=O)c2ccccc2c1=O (configuration not stated)	i
COc1ccc(C2N(c3cc(Cl)ccc3OC)C(=O)C3CCCN32)cc1OC (configuration not stated)	i
O=C(NNC(=O)C1CCCN(c2ncccn2)C1)c1ccc(F)cc1 (configuration not stated)	i
CC(=O)c1c(C)[nH]c(C(=O)NCCCN2CCCC2)c1C	0.1
COc1ccc(C2OC(=O)c3ccccc3S2)cc1 (configuration not stated)	i
Cc1ccc(C(=O)CSc2nnc(CNc3ccc(C)cc3C)n2Cc2ccco2)cc1	i
COC(=O)C(Nc1nccs1)(OC)C(F)(F)F (configuration not stated)	i
CC(=O)c1cccc(NC(=O)Nc2ccc(C(=O)N3CCCC3)cc2)c1	i
CC(=O)OC1CSc2nc3ccccc3n2C1 (configuration not stated)	i
O=C(CC1Nc2ccccc2NC1=O)Nc1cc(Cl)cc(Cl)c1 (configuration not stated)	1.0
O=C(CCC(=O)OCC(F)(F)C(F)F)Nc1ccc(Cl)cc1	i
Cc1ccc(C2/C(=C(/O)c3cnn(-c4ccccc4)c3C)C(=O)C(=O)N2CCN2CCOCC2)o1 (configuration not stated)	i
CCOc1ccc2nc(C)cc(Nc3ccc4c(c3)OCCO4)c2c1	i
CCOC(=O)c1ccc2c(c1)N(Cc1ccccc1C)C(=O)c1ccccc1S2=O (configuration not stated)	1.8
Cc1ccc(S(=O)(=O)Nc2cccnc2)cc1	i
CC(C)(C)n1nnnc1C(c1ccccc1F)N1CCN(C2CCCC2)CC1 (configuration not stated)	0.0

An excerpt. The share of hits here may be higher or lower than overall.
